Screens: PubChem, National Center for Advancing Translational Sciences (NCATS)
hNpr1 antagonist – antagonists of human natriuretic peptide receptor Npr1; Potency, µM (doses to about 46.3 µM), without a hit: at the highest dose activity change, negative = inhibition, usual class: inhibitors; actives 1.6% (n = 76,000); P16066; HEK293 hNpr1 GloSensor cGMP, ANP-stimulated luminescence; active = well fitted inhibition curve with a large enough effect; inconclusive = small, poorly fitted or top-dose-only effect; inactive = no such curve, though single readings can be large or run the other way;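 also: nearly all actives have a fitted effect of over 60% in size; nearly all hits also lower the signal before the agonist is added; a reference antagonist and vehicle were the controls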
Target sequence (P16066 whole entry, looked up): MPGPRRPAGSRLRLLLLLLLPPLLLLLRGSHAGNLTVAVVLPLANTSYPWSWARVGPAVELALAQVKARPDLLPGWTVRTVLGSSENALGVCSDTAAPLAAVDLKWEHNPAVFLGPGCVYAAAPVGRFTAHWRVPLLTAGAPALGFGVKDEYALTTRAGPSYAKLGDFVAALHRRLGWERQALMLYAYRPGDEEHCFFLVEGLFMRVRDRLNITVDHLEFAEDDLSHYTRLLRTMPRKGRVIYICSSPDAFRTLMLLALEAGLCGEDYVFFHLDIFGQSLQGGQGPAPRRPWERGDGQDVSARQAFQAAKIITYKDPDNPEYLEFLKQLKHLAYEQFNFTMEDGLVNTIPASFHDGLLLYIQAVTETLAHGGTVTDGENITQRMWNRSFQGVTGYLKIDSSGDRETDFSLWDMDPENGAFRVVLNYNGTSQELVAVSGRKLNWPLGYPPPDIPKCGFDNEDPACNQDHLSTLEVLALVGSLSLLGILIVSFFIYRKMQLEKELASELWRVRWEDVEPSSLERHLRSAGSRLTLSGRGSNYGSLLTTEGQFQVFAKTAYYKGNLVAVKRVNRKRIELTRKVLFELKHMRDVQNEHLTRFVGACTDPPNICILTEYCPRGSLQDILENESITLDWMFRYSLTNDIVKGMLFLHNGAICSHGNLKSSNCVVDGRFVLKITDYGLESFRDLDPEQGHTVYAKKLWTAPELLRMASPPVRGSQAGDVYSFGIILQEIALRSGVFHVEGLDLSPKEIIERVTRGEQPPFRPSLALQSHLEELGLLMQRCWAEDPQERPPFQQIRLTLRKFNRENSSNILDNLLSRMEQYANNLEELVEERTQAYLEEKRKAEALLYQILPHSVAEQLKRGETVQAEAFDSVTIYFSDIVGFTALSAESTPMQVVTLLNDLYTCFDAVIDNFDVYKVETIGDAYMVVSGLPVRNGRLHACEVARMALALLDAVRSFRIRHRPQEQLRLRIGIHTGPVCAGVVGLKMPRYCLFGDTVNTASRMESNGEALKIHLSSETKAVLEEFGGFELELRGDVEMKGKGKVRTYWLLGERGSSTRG
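HEK293 cells stably expressing human Npr1 and cGMP GloSensor pGS-40F, loaded 2 h with 2% GloSensor reagent, given compound 30 min at room temperature. Luminescence read before and 20 min after 0.1 nM hNppA.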
The depositor's hits bear a star; u = inconclusive; [ ] = dose if it differs, or a comment. % is scaled to controls: 0 for no effect and ±100 for the full control effect; potency is read from the fitted curve at half-maximal effect.

item	hNpr1 antagonist	Compound
1	u	CN(Cc1ccccc1)C(=O)C[C@@H]1CCNC[C@@H]1Cc1cc(CC2CCCCC2)on1
2	-30%	CC(C)c1noc(-c2cn(C3CCN(C(=O)c4cccc(OC(F)(F)F)c4)C3)nn2)n1 (configuration not stated)
3	-5%	CCN(CC)CCNC(=O)C12CCCC=C1N(Cc1ccccc1)C(=O)CC2 (configuration not stated)
4	-11%	CN1CCCCCCN(Cc2cn(C)c3ccccc23)[C@H]2CCC[C@H]2C1=O
5	-12%	Cc1cccc(C(=O)N2C(C(=O)NCc3ccccc3)COC23CCN(C(=O)CC(C)C)CC3)c1 (configuration not stated)
6	6%	Cc1cnc(C(=O)N2CCC(N3C(=O)C4(CCCC4)C3c3ccccc3)CC2)cn1 (configuration not stated)
7	2%	Cc1cc(C)nc(SCc2ccc(C(=O)N3CCCC[C@H](N(C)C)C3)o2)n1
8	-19%[70.6 µM]	Cc1nn2c(c1-c1ccccc1Oc1ccccc1)N(C(=O)c1cccc(C#N)c1)CCC2
9	1%	CC(C)C[C@H](NC(=O)c1csc2nc(-c3cccc(C(F)(F)F)c3)cn12)C(N)=O
10	-4%	Cc1nc(-c2c3n(c(=O)n(Cc4ccc(OC(F)(F)F)cc4)c2=O)CCCCC3)no1

Following part:
item	hNpr1 antagonist	Compound
11	2%	COCCNC(=O)[C@@H]1CCC[C@@H](NC(=O)c2c(-c3ccccc3)noc2C)CN(C)C(=O)C1
12	-1%	CC(=O)Nc1ccc(S(=O)(=O)Nc2ccc3n(c2=O)C[C@H]2C[C@@H]3CN(Cc3cn(C)c4ccccc34)C2)cc1
13	9%	NC(=O)N1CCCC(C(=O)N2CCN(Cc3cccc(O)c3)CC2)C1 (configuration not stated)
14	-9%	CNC(=O)[C@@H]1CN(C(=O)c2ccco2)C[C@H]1COC
15	0%	O=C(N[C@H]1CCN2C(=O)c3cc(Br)ccc3NC(=O)[C@@H]2C1)C1CCNCC1
16	-17%[70.6 µM]	O=C1NC2(CCN(Cc3ccsc3)CC2)COc2ccccc21
17	7%[70.6 µM]	CN1C(=O)CO[C@H]2CN(c3ccc(C#N)cn3)C[C@H]21
18	5%	Cc1ccc(NC(=O)N2CCCC(Cn3c(C4CC4)nc4cccnc43)C2)cc1 (configuration not stated)
19	-3%	COCCNC(=O)C1COC2(CCN(C(=O)c3ccccc3Cl)CC2)N1C(=O)c1cccc(C)c1 (configuration not stated)
20	-2%	O=C(c1cccnc1)N1CCC2(CCCN(Cc3cccc(F)c3F)C2=O)C1 (configuration not stated)

As entered above:
hNpr1 antagonist with CC(C)c1noc(-c2cn(C3CCN(C(=O)c4cccc(OC(F)(F)F)c4)C3)nn2)n1 (configuration not stated) stands at -30%
hNpr1 antagonist with Cc1cnc(C(=O)N2CCC(N3C(=O)C4(CCCC4)C3c3ccccc3)CC2)cn1 (configuration not stated) stands at 6%

Going on with the list:
item	hNpr1 antagonist	Compound
21	2%[70.6 µM]	CC1(C(=O)NCc2cccnc2)CCc2cnc(Nc3ccccc3)nc21 (configuration not stated)
22	5%	O=c1n(Cc2ccc3ccccc3n2)nc(C2CCNCC2)n1Cc1ccccc1
23	0%	C=CCNC(=O)C1CC(c2ccccc2F)=NO1 (configuration not stated)
24	-3%	O=C(c1ccc(-c2ccc(CO)cc2)nc1)N1CCC(Oc2cccnc2)CC1
25	0%	Cc1ccc(-c2cc(O)c3c(c2)CN(C(=O)[C@@H](N)Cc2cnc[nH]2)CCO3)cc1
26	-12%	O=C(CN1CC2CC(C1)[C@H]1CCCC(=O)N1C2)Nc1ccccc1 (some centres not stated)
27	-19%	Cc1ccc(OCc2nc(C3CCCN3C(=O)c3sc(C)nc3C)no2)cc1 (configuration not stated)
28	-1%	CCCNc1ccc2nncn2n1
29	1%	Cc1ccc(NC(=O)C2(CCO)CCN(c3ncccn3)C2)cc1 (configuration not stated)
30	-7%[70.6 µM]	COc1ccc(CN2CCC3(C2)NC(=O)c2ccccc2O3)cc1 (configuration not stated)

(listing goes on)
item	hNpr1 antagonist	Compound
31	-8%[70.6 µM]	COc1ccc(C(=O)N[C@@H]2C=C[C@@H](c3c(C)nn(-c4ccccc4)c3C)C2)cc1
32	4%	COc1ccc(Cc2nc3nccc(-c4ccccn4)n3n2)cc1
33	4%	C=CCOC(=O)Nc1nc2c(s1)C[C@@H]1[C@](C)(CO)[C@H](O)CC[C@@]1(C)[C@@H]2CC(=O)N(CC)CC
34	0%	COc1ccc(C(=O)NC2CCN(c3cc(-c4ccc(F)cc4)[nH]n3)CC2)c(C)c1
35	-4%	O=C(c1ccn(C(F)F)n1)N1CCCC(c2ccccc2)(c2ccccc2)C1
36	-17%	COc1ccc(OC)c(CN2CCC3(CC2)Nc2ccccc2NC3=O)c1
37	2%	COCC(=O)N1CCc2nc(C3CC3)nc(-c3ccc(Cl)cc3)c2C1
38	-2%	O=C(c1cccc(Cl)c1)N1C[C@@H](CO)[C@H](c2nc(C3CC3)no2)C1
39	-1%	COc1cccc([C@@H]2CN(C(=O)CCCn3cnnn3)C[C@H]2C(=O)O)c1
40	-19%	COc1cccc([S+](=O)([O-])N2CCC3(CC2)COc2ccccc2NC3=O)c1

Gathered by group, the entries above containing an NH in an aromatic ring
item	hNpr1 antagonist	Compound
25	0%	Cc1ccc(-c2cc(O)c3c(c2)CN(C(=O)[C@@H](N)Cc2cnc[nH]2)CCO3)cc1
34	0%	COc1ccc(C(=O)NC2CCN(c3cc(-c4ccc(F)cc4)[nH]n3)CC2)c(C)c1

Other results follow:
item	hNpr1 antagonist	Compound
41	-1%	CCN(CC)C(=O)C[C@@H]1c2nc(NC(=O)C3CCC3)sc2C[C@@H]2[C@](C)(CO)[C@H](O)CC[C@]21C
42	5%	Cc1cc(CNC(=O)[C@H]2CNC[C@@H](C(=O)N3CCCC3)C2)n(C)n1
43	-20%	CCOC(=O)C1CCCN(C(=O)c2c(C)oc3c2CN(Cc2ccc(C)cc2)CC3)C1 (configuration not stated)
44	-2%	CCCNC(=O)N(C1CCOCC1)C1CCN(C(=O)c2cc(Cl)ccc2OC)CC1
45	u	COc1ccccc1-c1ccc2ncc(Nc3cc(F)cc(N4CCOCC4)c3)n2n1
46	-20%	COc1ccc(CN2CCOc3ccc(C(=O)NCc4ccccc4F)cc3C2)cc1OC
47	-10%[70.6 µM]	CNC(=O)c1cc2cc(-c3c(C)noc3C)nc(-c3cccnc3OC)c2o1
48	15%	O=C(C1CC1)N1CCC2(CC1)CC(N(Cc1ccc(F)cc1)C1CC1)CCO2 (configuration not stated)
49	0%	Cn1cc(S(=O)(=O)N2CCCC(C)(c3ccccc3)C2)cn1 (configuration not stated)
50	16µM*	O=C(c1ccc(F)cc1Cl)N1CCC(n2cc(-c3nc(C4CC4)no3)nn2)C1 (configuration not stated)

Among those listed so far, these contain a Cl atom.
item	hNpr1 antagonist	Compound
19	-3%	COCCNC(=O)C1COC2(CCN(C(=O)c3ccccc3Cl)CC2)N1C(=O)c1cccc(C)c1 (configuration not stated)
37	2%	COCC(=O)N1CCc2nc(C3CC3)nc(-c3ccc(Cl)cc3)c2C1
38	-2%	O=C(c1cccc(Cl)c1)N1C[C@@H](CO)[C@H](c2nc(C3CC3)no2)C1
44	-2%	CCCNC(=O)N(C1CCOCC1)C1CCN(C(=O)c2cc(Cl)ccc2OC)CC1
50	16µM*	O=C(c1ccc(F)cc1Cl)N1CCC(n2cc(-c3nc(C4CC4)no3)nn2)C1 (configuration not stated)

More results.
item	hNpr1 antagonist	Compound
51	1%[70.6 µM]	CS(=O)(=O)NC[C@H]1OC[C@@H](NCc2ccccn2)[C@@H]1O
52	0%[70.6 µM]	CCC(CC)C(=O)N[C@H]1CO[C@H]2[C@@H]1OC[C@H]2OC(=O)Nc1ccccc1
53	11%	CC(C)CNC(=O)N1CCC(c2nc(CCOCC3CCOCC3)no2)C1 (configuration not stated)
54	-12%	CS(=O)(=O)N1CCCN(C(=O)COc2ccccc2)CCNC(=O)CC1c1ccccc1 (configuration not stated)
55	u	COc1ccccc1CN1CCc2nc(C(=O)Nc3cccc(C(F)(F)F)c3)oc2CC1
56	-3%	O=C(Nc1nnc(Cc2ccccc2)s1)C1CC(=O)N(c2n[nH]c3ccccc23)C1 (configuration not stated)
57	5%	Cc1ccc(NC(=O)CC2=C3CCCCC3N(C)C2=O)cc1 (configuration not stated)
58	-2%[70.6 µM]	CN1C(=O)[C@@H]2C[C@@H](CN2C2CCCC2)Oc2ccccc21
59	-2%	CC(C)c1ccc(C(=O)N2CC(C(=O)N(C)C)C3(CCOCC3)C2)cc1 (configuration not stated)
60	6%	Cn1c(CN2CCOCC2)nnc1C1CCCN(CCC(=O)O)C1 (configuration not stated)

The list goes on.
item	hNpr1 antagonist	Compound
61	0%	CCN1C(=O)C2CC3(CCN(C(=O)CCc4c(C)nn(C)c4C)CC3)CN2C1=O (configuration not stated)
62	-5%[70.6 µM]	O=C1c2cc(N3CCOCC3)nc(-c3cccc(O)c3)c2CN1CC(F)(F)F
63	3%	Cc1cccc(Nc2nc(N)nc(CN3CC[C@@](O)(C4CCC4)[C@H](C)C3)n2)c1
64	3%	O=C1NCCCCCN(C(=O)c2ccc3ccccc3n2)[C@H]2CCC[C@@H]12
65	-25%	COc1ccc(CCN(C)C(=O)CC(c2cccc(F)c2)c2cn(C)c3ccccc23)cc1OC (configuration not stated)
66	-2%[70.6 µM]	COc1ccc(S(=O)(=O)N[C@H](C)c2onc(C)c2C(=O)O)cc1
67	-3%[70.6 µM]	COc1cccc(CN2CCOC3(CCN([S+](=O)([O-])c4cccnc4)CC3)C2=O)c1
68	-5%	CC1=Nc2cc(C(=O)NC(C)c3ccccc3)ccc2Sc2ccccc21 (configuration not stated)
69	-4%	O=C(C1CCCC1)N1CCC2(CCCN(Cc3cccc(F)c3F)C2)C1 (configuration not stated)
70	-2%	COC1CN(c2cccc(F)c2)C12CCN(C(=O)C1CCCCC1)CC2 (configuration not stated)

Continued:
item	hNpr1 antagonist	Compound
71	-12%[70.6 µM]	O=c1[nH]c(C2CCCN(Cc3ccccc3)C2)nc2ccc(F)cc12 (configuration not stated)
72	-15%	CC(C)c1noc(-c2cccn3c(CNC(=O)c4cc(F)ccc4F)nnc23)n1
73	3%	O=C(NCCCn1cccn1)c1cccnc1N1CC2CC(C1)[C@H]1CCCC(=O)N1C2 (some centres not stated)
74	14%	Cc1nc2ccc(C(=O)NC(C(=O)O)c3c(C)n[nH]c3C)cc2[nH]1 (configuration not stated)
75	0%	CCn1c(C2CCCN(C(=O)Cc3c[nH]c(=O)n(C)c3=O)C2)nn(C)c1=O (configuration not stated)
76	3%	CC(C)N1C(=O)C2(CCCC2)C1C(=O)NCc1cccc(C(F)(F)F)c1 (configuration not stated)
77	-12%	CC(C)CCNC(=O)c1cc(-c2ccncc2)cn1C
78	6%	COCCCN(CCC(=O)NCCOC)C(=O)c1cc(C)oc1C
79	-8%	O=C(Nc1ccc2c(c1)OCCO2)N1CCC2(CC1)CC(N1CCCC1)CCO2 (configuration not stated)
80	11%	Cc1c(C(=O)N2CCN3C(=O)CNC(=O)C3C2)cnn1-c1ccccn1 (configuration not stated)

The list continues:
item	hNpr1 antagonist	Compound
81	-19%[70.6 µM]	O=C(c1ccc(Cl)cc1)N1CCOCC12CCN(CCc1ccccc1)CC2
82	1%	CCN(CC)C(=O)C1=C(C)N=C2SC=C(CC(=O)NCc3ccccc3)N2C1c1ccccc1F (configuration not stated)
83	6%	COCc1ccc(C(=O)N2CCC3(CC2)CC(c2ccccc2)C(=O)N(C)C3)o1 (configuration not stated)
84	2%	NC(=O)[C@@H]1CN(C(=O)Cc2ccccc2)C[C@H]1COc1ccccc1
85	5%	COc1ccc(N2C(=O)CSC23CCN(C(=O)CC(C)C)CC3)cc1
86	-1%[70.6 µM]	O=C(c1ccccc1Cl)N1CCn2c(nn(-c3ccc(F)cc3)c2=O)C1
87	u	COc1ccc(C2Cn3nnc(C(=O)N4CCN(C(=O)c5ccccc5Cl)CC4)c3CO2)cc1 (configuration not stated)
88	-4%	CC(C)CC(=O)N1CCc2[nH]nc(C(=O)NCCCc3ccccc3)c2C1
89	0%	COc1ccccc1C(=O)N1CCC2(CC1)NC(=O)N(Cc1ccc(C)cc1)C2=O
90	0%[70.6 µM]	O=C(O)C[C@@H]1CCN(C(=O)C2CCCC2)C[C@@H]1CCN1CCN(c2ccccn2)CC1

New compounds follow:
item	hNpr1 antagonist	Compound
91	2%[70.6 µM]	CN1CCN(C(=O)C(C)(C)Oc2nn(CC3CC3)c3ccc(CN4CCCC4)cc23)CC1
92	-5%	CN1C[C@@H]2CCCN3CCC[C@@H]([C@H]23)[C@H]1CCCC(=O)NCCCN1CCc2ccccc2C1
93	-2%	O=C(COc1ccccc1Cl)N1CCCC(O)(CN2CCCC2)C1 (configuration not stated)
94	-18%	Cc1ccc(-c2nccn3cc(C(=O)N4CCN(c5ncccn5)CC4)nc23)cc1
95	-26%	COc1ccc(C2(C(=O)NCCc3ncc(C)n3Cc3ccc(F)cc3)CC2)cc1
96	-3%	CCCC(=O)N1CCC2(CC1)SCC(=O)N2c1ccc(F)cc1
97	-30%	COc1ccc(-c2cc(N3CCCN(C(=O)c4ccccc4Cl)CC3)n[nH]2)cc1
98	2%	O=C([C@@H]1C[C@H](Oc2cccnc2)CN1S(=O)(=O)Cc1ccccc1F)N1CCCC1
99	-6%	CN(C)C(=O)N1CCC2(CC1)CC(=O)N(c1ccccc1)c1ccccc1O2
100	4%[70.6 µM]	CC(C)CC(=O)N[C@H](C)c1onc(-c2ccc(Cl)cc2)c1C(=O)O
101	-8%	CC(C)Oc1ccc(CN2C(=O)C3(CCOCC3)CC2c2nnnn2C(C)(C)C)cc1 (configuration not stated)

Not all compounds are listed; rates above refer to the full screens.
